Source: PubChem BioAssay (several laboratories)
T cruzi inh: inhibitors of intracellular T. cruzi growth, primary screen, luminescence, NIH3T3 host cells | AID 1885, 2009 | inhibition, % (test concentration not listed) | T. cruzi beta-gal in NIH3T3, 90 h | actives 1.4% (n = 300,000);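 active = mean inhibition across valid replicates above about 55%, limit read from the data; inconclusive = mean below that limit but half or more replicates reach it; inactive = mean below it, under half of replicates reach it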;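 note: signal also drops with host cell toxicity which is not excluded here; 0% = plate median of DMSO wells and 100% = zero luminescence signal; higher percent means less beta-gal luminescence so fewer parasites; stock transfer was 50 nL into about 50 µL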
Ecoli rRNA inh: reduced GFP signal of wild-type E. coli, primary screen, bacterial rRNA inhibitor project, GFP/RFP fluorescence, OD600, single point; E. coli WT GFP vs humanized-ribosome RFP mutants, 24 h; stronger effect = lower value; DMSO median 0, no signal -100; GFP signal change (wild-type ribosome), % (no concentration beside the values); actives 1.6% (n = 350,000); AID 720706, 2013;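 active = significant combined selectivity score with lowered wild-type GFP, culture density cut under 30%, mutant RFP and density less affected; inactive = any of these conditions unmet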; note: one replicate is shown; some compounds called inactive have numbers as strong as hits
Beta apoptosis: inhibitors of cytokine-induced beta cell apoptosis, primary screen, luminescence; AID 435005, 2010; actives 0.8% (n = 300,000); protection from apoptosis, % (concentration not given with the values); INS-1E cytokine-induced death, ATP luminescence, 48 h; percent of positive-control rescue, neutral wells zero;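 active = all replicates at 75% or more, or half of them and the mean; inconclusive = half reach 75% but not the mean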;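 note: 0% = cytokine-treated negative control wells and 100% = positive control rescue; higher means more ATP so stronger rescue from cytokine killing; wells of about 40 µL received 100 nL stock; the first replicate is given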
Calb FLC: C. albicans growth inhibition with fluconazole, primary screen, CaCi-2 strain, Alamar Blue fluorescence; C. albicans CaCi-2 (fluconazole-resistant clinical isolate) + fluconazole, 48 h; growth inhibition, % (test concentration not listed); actives 0.57% (n = 300,000);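 active = most replicates above 75%; inconclusive = exactly half above 75%; inactive = most below 75%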;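 note: all wells also contain fluconazole at 8 µg/ml as a sub-toxic cotreatment; 0% = median of DMSO wells and 100% = median of geldanamycin control wells; wells of about 8 µL received 7.5 nL stock; the first replicate is given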
LANA-H2A inh: blockers of LANA interaction with H2A/H2B – biochemical, FP readout, HTS, primary screen; AID 2629, 2010; Protein LANA1 (Human herpesvirus 8 type P (isolate GK18)), Q9QR71; inhibition, % (test concentration not listed); actives 0.6% (n = 320,000); cell-free LANA-H2A/H2B peptide, fluorescence polarization; in the data active = inhibition mostly above about 10%, no sharp cut-off; inactive = mostly below about 6.7%;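 note: stock transfer was 7.5 nL into about 10 µL; 0% = median of vehicle wells and 100% = median of positive control wells; one replicate is shown; the record names a cut of 25% in any replicate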
A1 inh: caspase 3/7 activation in MEF A1-2A-BIM cells, primary screen, A1 inhibitor project, cell-based, luminescence, HTS; AID 2462, 2010; Caspase-Glo 3/7 luminescence, 3 h; percent of clofoctol response, vehicle zero; actives 0.066% (n = 330,000); caspase activation, % (concentration not given with the values);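 active = over half of replicate activation scores above 10%, or exactly half above 10 with the replicate mean above 10; inconclusive = replicate mean below 10 yet half the replicates above 10; inactive = over half of replicates below 10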;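 note: wells of about 30 µL received 50 nL stock; many hits fall short of the cut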
Beta2AR agonist: beta2AR agonists driving receptor internalization, primary screen, cell-based, FAP fluorogen, flow cytometry; response, % (no concentration beside the values); Am2.2-beta2AR cells; reference of the scale not given here; Beta-2 adrenergic receptor (Homo sapiens), P07550; actives 0.43% (n = 340,000);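 active = response above a set limit, near 3 SD of response in nonfluorescent compounds, cut at about 42% in these data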;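 note: stock transfer was 100 nL into about 11 µL; a reference agonist was the positive control; negative values mostly stem from fluorescent compounds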
Target sequence (P07550 whole entry, looked up): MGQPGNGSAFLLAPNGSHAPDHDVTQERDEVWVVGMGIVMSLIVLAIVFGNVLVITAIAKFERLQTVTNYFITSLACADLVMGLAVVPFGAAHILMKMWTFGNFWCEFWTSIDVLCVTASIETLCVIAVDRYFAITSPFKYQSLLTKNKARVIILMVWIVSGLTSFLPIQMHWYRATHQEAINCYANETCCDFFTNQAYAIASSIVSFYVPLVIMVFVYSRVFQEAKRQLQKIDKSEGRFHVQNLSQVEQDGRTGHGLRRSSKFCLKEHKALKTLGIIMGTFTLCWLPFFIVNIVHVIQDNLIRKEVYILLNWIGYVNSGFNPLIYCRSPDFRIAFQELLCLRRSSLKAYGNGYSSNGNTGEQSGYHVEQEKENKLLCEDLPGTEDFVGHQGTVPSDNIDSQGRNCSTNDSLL
ALR inh: inhibitors of human ALR sulfhydryl oxidase, primary screen, biochemical, H2O2 detection, HRP-luminol luminescence, single point. actives 3.8% (n = 290,000). purified ALR, DTT oxidation. inhibition, % (no concentration beside the values);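 active = mean and each replicate at 75% or more; inconclusive = only one of the two met; inactive = neither met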;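 note: stock transfer was 7.5 nL into about 7.5 µL; 0% = neutral wells and 100% = wells with inactivated enzyme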
Target sequence (P55789 whole entry, looked up): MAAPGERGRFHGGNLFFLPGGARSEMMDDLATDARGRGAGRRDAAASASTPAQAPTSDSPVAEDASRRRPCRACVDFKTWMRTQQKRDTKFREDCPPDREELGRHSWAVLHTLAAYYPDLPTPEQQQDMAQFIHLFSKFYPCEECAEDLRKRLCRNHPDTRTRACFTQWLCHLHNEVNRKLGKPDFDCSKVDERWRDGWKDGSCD
Ecoli rRNA inh OD600: second read-out of Ecoli rRNA inh, no call of its own (marks repeat the call); OD600 change, %; measured here: OD600 growth;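 optical density of the mix in the first replicate; 0 = DMSO median and -100 = no signal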
Ecoli rRNA inh RFP: recorded beside Ecoli rRNA inh, whose call it bears; RFP signal change, %; measured here: RFP humanized mutant strains;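 first replicate; 0 = DMSO median and -100 = no signal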
Numbers without * were called inactive; u = inconclusive; x = no result given.

Sample of the layout:
SMILES	T cruzi inh	Ecoli rRNA inh	Ecoli rRNA inh OD600	Ecoli rRNA inh RFP	Beta apoptosis	Calb FLC	LANA-H2A inh	A1 inh	Beta2AR agonist	ALR inh
O=C(NCC1CCCO1)c1ccccc1-c1nc(-c2ccc(F)cc2)no1 (configuration not stated)	6	x	x	x	6	-3	0.4	-0.6	-1	-5
COc1ccc(C(=O)/C=C/c2ccc(OC3CSC3)cc2)cc1OC	-6	x	x	x	0	4	-2.7	0.3	-17	-4
CCC1=NN2C(=N)/C(=C/c3ccc(OS(=O)(=O)c4ccccc4)cc3)C(=O)N=C2S1	3	x	x	x	1	-9	-5.2	-2.5	9	-12
COc1ccc(C(NC(=O)C2C3C=CC(C3)C2C(=O)O)c2ccccc2)cc1 (configuration not stated)	8	6	2	-7.2	3	0	-3.1	-0.2	17	-2
NC(=O)CSc1nc2ccc([N+](=O)[O-])cc2[nH]1	-13	3	-3	7.7	-4	7	-1.7	-1.1	0	-4
Cc1ccc(S(=O)(=O)N2CCCCC2)cc1NC(=O)CCc1nc2ccccc2c(=O)[nH]1	10	6	15	3.8	2	2	-2.7	0.1	9	-56

The whole of this part, previewed entries included:
SMILES	T cruzi inh	Ecoli rRNA inh	Ecoli rRNA inh OD600	Ecoli rRNA inh RFP	Beta apoptosis	Calb FLC	LANA-H2A inh	A1 inh	Beta2AR agonist	ALR inh
O=C(NCC1CCCO1)c1ccccc1-c1nc(-c2ccc(F)cc2)no1 (configuration not stated)	6	x	x	x	6	-3	0.4	-0.6	-1	-5
COc1ccc(C(=O)/C=C/c2ccc(OC3CSC3)cc2)cc1OC	-6	x	x	x	0	4	-2.7	0.3	-17	-4
CCC1=NN2C(=N)/C(=C/c3ccc(OS(=O)(=O)c4ccccc4)cc3)C(=O)N=C2S1	3	x	x	x	1	-9	-5.2	-2.5	9	-12
COc1ccc(C(NC(=O)C2C3C=CC(C3)C2C(=O)O)c2ccccc2)cc1 (configuration not stated)	8	6	2	-7.2	3	0	-3.1	-0.2	17	-2
NC(=O)CSc1nc2ccc([N+](=O)[O-])cc2[nH]1	-13	3	-3	7.7	-4	7	-1.7	-1.1	0	-4
Cc1ccc(S(=O)(=O)N2CCCCC2)cc1NC(=O)CCc1nc2ccccc2c(=O)[nH]1	10	6	15	3.8	2	2	-2.7	0.1	9	-56
CCc1noc(C)c1C(=O)Nc1cc(C(F)(F)F)ccc1-n1cncn1	-6	5	13	1.4	x	-2	1.2	1.9	-9	3
Cc1ccc(C(=O)Nc2ccc(Nc3ccccc3)cc2)c(Cl)c1	6	11	27	7.8	-8	0	1.2	-0.4	-3	0
Cc1ccc(N2C(=O)C3ON(c4ccccc4)C(CC(C)C)C3C2=O)cc1 (configuration not stated)	10	7	-10	-0.1	-8	15	-2.5	0.3	-4	-5
CCOC(=O)[C@H]1[C@H]2COc3ccc(Br)cc3[C@@H]2N2C(=O)[C@H](C)NC(=O)[C@@]12C	x	2	4	-2.7	0	x	4.1	0.8	8	4
CCOC(=O)c1c(COC(=O)c2ccco2)nc2ccccc2[n+]1[O-]	-13	x	x	x	-1	7	1.8	0.2	9	-6
CCn1c(=O)c2ccccc2n(Cc2cccc([N+](=O)[O-])c2)c1=O	-4	13	24	0.1	0	11	2.0	-0.1	-6	x
O=C1C=C(Nc2ccccc2O)c2ccccc2C1=O	-41	-30	-40	13	113*	-5	1.4	-0.9	-4	57
N#CCSc1nc(-c2ccccc2)nc2ccccc12	7	15	13	4.0	1	7	-0.4	-0.3	-6	-13
CN(C)CCNc1c2c(nc3nnnn13)CCCC2	2	16	13	-3.8	2	8	x	-0.6	-6	-1
O=C(CCc1nnc(CCc2ccccc2)o1)NC(c1cccnc1)C(F)(F)F (configuration not stated)	4	1	10	-2.0	-2	1	5.8	1.1	0	x
CN(CC(=O)Nc1ccccc1)CC(=O)Nc1ccc(F)cc1	-9	4	-3	-0.3	2	2	0.7	0.1	4	29
NC(=O)C1CCN(C(=O)CNC(=O)c2ccc(Br)o2)CC1	-19	25	25	-1.4	-2	-3	2.3	1.3	-7	-2
N#Cc1ncccc1CCc1cccc(Cl)c1	0	-14	3	-1.7	x	6	-0.8	-1.1	-3	-14
COc1cc2c(cc1OC)C1(CCCC1)CNC2c1ccc([N+](=O)[O-])cc1 (configuration not stated)	25	-2	-2	-4.2	-1	7	-3.3	-1.0	12	x
Cc1[nH][nH]c(=O)c1C(c1ccc(-c2cccc(Cl)c2)o1)c1c(C)[nH][nH]c1=O	5	x	x	x	-4	-3	3.6	0.0	11	1
Brc1ccc(OCCn2ccnc2)cc1	69*	2	-5	-9.1	-3	11	-0.1	-0.2	-17	-4
O=C1C(=O)N2C(=C1C(=O)N1CCCCCC1)c1ccccc1CC21CCCC1	10	-19	-17	3.5	0	-5	12	1.2	-5	-2
CC1CCc2c(sc(/N=C/c3ccco3)c2C(N)=O)C1 (configuration not stated)	-6	1	-9	2.0	-1	67	-5.5	-3.6	-11	-2
O=C(CCS(=O)(=O)c1ccc(F)cc1)Nc1nc(-c2ccncc2)cs1	-19	1	-5	-0.5	-12	u	0.1	1.0	12	-4
CC(OC(=O)CCN1C(=O)C2CC=CCC2C1=O)C(=O)c1ccc(F)cc1 (configuration not stated)	x	3	1	-1.1	-8	x	2.0	1.0	-2	-4
CCOc1ccc(C(=O)NCCc2ccccc2)cc1	3	-8	6	-4.7	0	17	0.9	-6.5	-3	x
CCOC(=O)c1[nH]c(C)c(C(=O)OCC(=O)N(C)C2CCS(=O)(=O)C2)c1C (configuration not stated)	-1	12	10	5.2	-7	8	0.0	-0.6	2	0
CCOc1ccc(NC(=O)c2ccccc2CO)cc1	-5	x	x	x	2	9	0.8	-0.7	2	-3
C/C=C/C=C/C(=O)Nc1cccc(C2=NOC3(C2)C[C@H](C(N)=O)N(C(=O)CC(c2ccccc2)c2ccccc2)C3)c1 (some centres not stated)	9	x	x	x	-7	3	1.6	0.8	x	-1
Cc1cc(/C=C(/C#N)C(=O)Nc2ccccc2)c(C)n1-c1cccnc1	-1	-4	-4	3.0	-1	6	-1.6	-1.3	-3	74
CCNc1nc(NCC)n2c(SCC(=O)Nc3ccc(OC)c(OC)c3)nnc2n1	-7	-2	7	-2.4	1	3	-0.6	-0.4	-3	6
Cc1ncsc1CCOC(=O)c1ccc(Cl)cc1	6	-34	-57	-17	-2	-1	-3.1	-0.5	10	-6
COc1cccc(-c2nc(CS(=O)(=O)CC(=O)Nc3cc(C)ccc3C)c(C)o2)c1	3	3	11	0.3	-3	0	5.5	0.0	2	-3
CC1=NC(=O)C(N=Nc2cccc(C(=O)O)c2)N1c1ccccc1 (configuration not stated)	2	-31*	-13*	-6.4*	2	40	-9.4	-1.5	5	8
O=C(/C=C/c1cccc(Cl)c1)Nn1c(-c2cccs2)nc2ccccc2c1=O	23	-24	-21	-1.8	3	26	-2.1	0.6	3	-8
COc1ccc(S(=O)(=O)N(C)C)cc1NC(=O)c1ccc(OCC(=O)N2CCOCC2)c(OC)c1	-2	4	13	0.0	6	2	x	-0.9	0	x
Cc1ccccc1-n1c(=O)cc(NCC2CCCO2)[nH]c1=O (configuration not stated)	1	6	7	-1.9	-1	4	-7.0	0.3	-17	14
NC(=O)C1CCN(C(=O)COc2ccc(S(=O)(=O)NCc3ccccc3)cc2Cl)CC1	8	13	13	-3.1	1	7	-21	0.2	1	2
Cc1c(OC(=O)CNC(=O)OC(C)(C)C)ccc2c3c(c(=O)oc12)CCC3	x	x	x	x	-8	x	6.3	0.6	-6	60
O=C(Nc1ccc(Cl)c(Cl)c1)Nn1cnnc1	-11	-22*	-12*	6.8*	-10	8	-0.1	-1.5	1	-6
O=c1[nH]nc(Cc2ccc(Cl)cc2)c2ccccc12	8	x	x	x	-6	-5	2.2	0.3	4	2
O=C1Nc2cc3c(cc2Sc2ccccc21)OCCO3	7	x	x	x	-3	1	1.0	0.1	7	-6
CCC1(CC)NC(=O)N(CC(=O)OC(C)C(=O)Nc2ccccc2OC)C1=O (configuration not stated)	-10	12	5	-0.1	-1	-4	17	0.5	-7	-12
COc1ccc2c(c1OC)C(=O)N(c1ncn[nH]1)C2	5	x	x	x	-1	-1	-4.0	-1.0	-12	-5
CCOc1ccc(S(=O)(=O)Nc2ccc(C(=O)NCC(c3ccc(OC)cc3)N3CCOCC3)cc2)cc1 (configuration not stated)	x	-6	-9	10	10	x	2.7	-0.7	-3	5
COc1cc(OC)cc(-c2c(C#Cc3ccsc3)c3cc(-c4ccc5c(c4)OCO5)ccc3n2C)c1	x	1	7	-5.7	7	x	1.9	-0.4	-3	1
Cc1ccc(CNC(=O)c2nn(C)c(C)c2[N+](=O)[O-])cc1	-8	0	1	-3.0	-4	-31	-0.9	0.5	0	-6
COc1ccc(Cl)cc1NC(=O)Nc1ccc(C(=O)N2CCOCC2)cc1	10	-3	-9	-0.9	-9	-3	-4.5	-1.9	11	3
Cc1c(NC(=O)C2CCN(S(=O)(=O)c3ccc(Cl)cc3)CC2)c(=O)n(-c2ccccc2)n1C	-2	x	x	x	-11	-1	-4.9	0.1	-2	2
CC(C)C1C(C#N)=C(N)Oc2n[nH]c(-c3ccccc3)c21 (configuration not stated)	-22	x	x	x	2	-2	3.6	0.4	-2	-3
CCn1c(SCC(N)=O)nc2sc3c(c2c1=O)CCCC3	-7	x	x	x	-2	-8	1.2	0.7	-6	36
Cc1csc2c(=O)n3c(nc12)CCCCC3	-21	x	x	x	3	-8	-1.6	1.7	14	-8
O=C(c1cccc(S(=O)(=O)Nc2ccc(F)cc2)c1)N1CCOCC1	x	-1	4	-2.0	-2	x	8.0	0.5	3	-1
C=CCN(c1ccccc1Cl)S(=O)(=O)c1cccc(C(=O)NCCc2ccc(OC)cc2)c1	31	x	x	x	2	22	1.7	-0.8	2	-4
CC1CCN(C(=O)c2[nH]cnc2C(=O)N(C)Cc2ccccc2)CC1	x	4	9	-3.7	-5	x	-2.2	-0.8	-3	-15
CCCCn1c(O)c(N=Nc2ccccc2O)c2ccccc21	x	-3	1	-2.5	-5	x	1.3	u	-189	-5
Cc1ccc(C)c(Nc2nc3ccccc3n3cnnc23)c1	5	10	-2	-7.0	-5	17	-0.8	-0.5	-8	-3

A portion of the library; the hit share may differ from the screen's.
